Assay outcomes from PubChem BioAssay.
Mtb hypoxia rep – Mtb hypoxia fluorescent reporter inhibition | M. tuberculosis hypoxia-regulated fluorescent reporter, fluorescence | fluorescence inhibition, % (concentration not given with the values) | 0.1% of 300,000 active | AID 1159583;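 active = 35 to 45% if threefold the growth effect, above 45% if 1.5-fold the growth effect; inactive = the rest, general growth blockers included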;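 note: wells of about 50 µL received 100 nL stock; 0% = vehicle wells and 100% = reference inhibitor wells; whole bacteria with a GFP reporter of the hypoxia response; strong numbers were not always called active; many hits fall short of the cut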
Sa ugtP lethal – kills S. aureus RN4220 lacking UgtP; 0.54% of 330,000 active; AID 1259309; growth inhibition, % (no concentration beside the values); S. aureus RN4220 ugtP deletion, OD600 growth, 16 h; some inactives read as strong as hits;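 active = z-score under -3 and OD600 up to 0.15 on both plates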;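 note: plate controls were untreated wells for no effect and antibiotic for full effect; wells of about 80 µL received 100 nL stock; the first replicate is given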
PrP UTR inh – suppresses PrP 5' UTR mRNA reporter expression. cell-based PrP 5' UTR mRNA reporter, plate reader. inhibition, % (no concentration beside the values). 0.35% of 340,000 active. AID 488862;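 active = every replicate at 50% or more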;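 note: 0 = median of the neutral control wells; tested in H4 reporter cells; numbers are from one replicate; inactives centre near -14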
BJeLR viability – kills HRASV12-expressing BJeLR cells; BJeLR (HRASV12) viability, CellTiter-Glo ATP luminescence, 48 h; reference of the scale not given here; inhibition, % (test concentration not listed); 0.17% of 300,000 active; AID 1554;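 active = replicate mean above 50%; inconclusive = above 50% but judged a plate artefact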;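 note: 50 nL library stock added to about 25 µL; numbers are from one replicate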
Bead autofluor – counter-screen for toxin protease inhibitors: compound fluorescence; compound autofluorescence counterscreen, microsphere flow cytometry; hits give high values; fluorescence intensity (concentration not given with the values); 3.1% of 360,000 active; AID 624483;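 active = at least 3 SD above the mean of all compounds, about 16000 in these data; inconclusive = too few beads counted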;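 note: 100 nL of 1 mM stock went into each well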
Sa RN4220 lethal – kills Staphylococcus aureus RN4220; AID 1259311; inhibition, % (test concentration not listed); S. aureus RN4220 growth, OD600, 16 h; 0.33% of 330,000 active;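 active = z-score of -3 or lower and OD600 up to 0.18 on both plates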;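 note: plate controls were untreated cells for no effect and reference antibiotic for full effect; stock transfer was 100 nL into about 80 µL; one replicate is shown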
Mtb hypoxia rep growth – further read-out of Mtb hypoxia rep, marked with its call; growth inhibition, %; measured here: M. tuberculosis growth (absorbance);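 0% = vehicle and 100% = reference antibiotic; read after six days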
Numbers without * were called inactive; ? = inconclusive; nt = no result given.

Screens in order – Mtb hypoxia rep	Mtb hypoxia rep growth	Sa ugtP lethal	PrP UTR inh	BJeLR viability	Bead autofluor	Sa RN4220 lethal
O=C(O)c1cccc(NC(=S)N/N=C/c2ccccn2)c1
 : nt	nt	nt	38	-1	2199	nt
CCc1ccc(CN(C)C(=O)c2ccc3c(=O)n4c(nc3c2)CCC4)cc1
 : 8	-9	-2	-17	5	6033	3.1
CN(C)C=C(C(=O)c1ccccc1)n1cncn1
 : 8	2	-5	nt	nt	nt	9.7
CCOC(=O)CN1C(=O)COc2ccc(C(C)(C)C)cc21
 : 1	6	0	-2	0	10786	6.4
CN(C)CCCNC(=S)N(CCCO)Cc1cc2cc3c(cc2[nH]c1=O)OCO3
 : 1	2	13	-15	1	2967	2.3
O=C1NC(=O)C(c2ccc(Cl)cc2Cl)N1 (stereo not drawn)
 : 1	15	-4	-10	nt	3729	0.3
CCCCNC(=O)Cn1c(=O)c2c(ncn2CC)n(Cc2ccccc2)c1=O
 : 15	2	3	-10	-2	3857	4.3
Cc1cccc(C)c1NC(=O)c1cn(-c2ccccc2)nc1-c1ccccc1
 : 12	7	4	7	-1	2346	7.9
CCc1ccc(NC(=O)[C@H](Cc2c[nH]c3ccccc23)NC(=O)[C@@H]2Cc3ccccc3CN2)cc1
 : nt	nt	-9	-1	59*	5618	1.7
CSc1ncccc1C(=O)N1CCN(S(=O)(=O)c2ccc(F)cc2)CC1
 : 0	-2	0	-22	-1	3156	-2.6
CSc1nc(O)c(Cc2ccccc2)c(=O)[nH]1
 : 17	6	7	-21	9	10196	5.6
CC(c1ccccc1)n1c(N2CCN(C)CC2)nc2c1c(=O)[nH]c(=O)n2C (stereo not drawn)
 : 8	1	-1	-17	6	3946	3.7
COc1ccc(CC(=O)Nc2nc3ccc(F)cc3s2)cc1S(=O)(=O)N1CCOCC1
 : nt	nt	nt	-21	7	2501	nt
O=C(O)CC1SC(=NN=Cc2ccccc2O)N(c2ccc(O)cc2)C1=O (stereo not drawn)
 : -10	3	-6	nt	nt	nt	-1.5
c1ccc(C2=NP(N3CCOCC3)(N3CCOCC3)=NC(N3CCOCC3)=N2)cc1
 : 2	5	1	nt	-12	nt	1.5
O=C(CCNC(=O)c1ccc(Br)cc1)NCCCc1ccccc1
 : 1	3	6	-12	0	5604	2.1
O=C(CC1C(=O)N(Cc2ccccc2)CC1Cc1ccccc1)Nc1ccccc1 (stereo not drawn)
 : 8	16	8	nt	nt	nt	-3.1
Cc1nc(SCC(=O)c2cc3ccccc3oc2=O)c(C#N)c(-c2ccccc2)c1C(=O)Nc1ccccc1
 : -4	-2	40	-28	-2	2359	7.6
Cc1ccc(C(=O)OC(C)C(=O)NC2CCCCC2C)s1 (stereo not drawn)
 : 9	-2	1	-4	nt	3822	3.8
COc1ccc(N(CC(=O)Nc2cccnc2)S(=O)(=O)c2ccc(C)cc2)cc1Cl
 : -17	-4	3	-19	-6	3968	2.1

An excerpt from above in order of formula weight, falling.
Screens in order – Mtb hypoxia rep	Mtb hypoxia rep growth	Sa ugtP lethal	PrP UTR inh	BJeLR viability	Bead autofluor	Sa RN4220 lethal
CN(C)CCCNC(=S)N(CCCO)Cc1cc2cc3c(cc2[nH]c1=O)OCO3
 : 1	2	13	-15	1	2967	2.3
CCCCNC(=O)Cn1c(=O)c2c(ncn2CC)n(Cc2ccccc2)c1=O
 : 15	2	3	-10	-2	3857	4.3
Cc1cccc(C)c1NC(=O)c1cn(-c2ccccc2)nc1-c1ccccc1
 : 12	7	4	7	-1	2346	7.9
CSc1nc(O)c(Cc2ccccc2)c(=O)[nH]1
 : 17	6	7	-21	9	10196	5.6

Further results.
Screens in order – Mtb hypoxia rep	Mtb hypoxia rep growth	Sa ugtP lethal	PrP UTR inh	BJeLR viability	Bead autofluor	Sa RN4220 lethal
Cc1ccc(S(=O)(=O)N2CCN(C(=O)c3sccc3-c3ccccc3)CC2)cc1
 : 8	8	1	-13	1	?	2.6
CN(C)CCCNC(=O)c1ccc(=O)[nH]n1
 : 16	5	1	-24	-6	4355	1.3
O=C1c2ccccc2S(=O)(=O)N1Cc1ccccc1[N+](=O)[O-]
 : -6	0	2	-6	0	3633	2.9
CC1CCc2c(sc3ncnc(NCCN4CCOCC4)c23)C1 (stereo not drawn)
 : 8	4	8	-18	6	5593	1.6
CCN(CC)c1nc2n(c(=S)n1)CCS2
 : 3	-13	4	-10	6	12798	4.2
Cc1ccccc1C(=O)NC1CC2CCCC(C1)N2C(=O)Nc1ccccc1 (stereo not drawn)
 : 1	0	-3	-14	-3	4998	4.7
CCOc1ccc(N(C)S(=O)(=O)c2ccc3[nH]cc(C(=O)NCCCOC)c(=O)c3c2)cc1
 : -20	11	0	-1	5	2966	3.2
COc1ccc(CNC(=O)Cn2nc([N+](=O)[O-])c(Br)c2C)cc1
 : 10	2	10	-1	-12	4041	4.6
Cc1ccc(OCC(=O)Nc2cccc(S(=O)(=O)NC3=NCCCCC3)c2)cc1C
 : 3	-3	8	-2	-9	5506	3.2
COc1ccc(-c2csc3ncnc(NCCN4CCOCC4)c23)cc1
 : nt	nt	11	3	10	4306	4.3
O=C(C(Sc1ccccc1)c1ccccc1)N1CCN(c2ccccc2F)CC1 (stereo not drawn)
 : nt	nt	6	3	5	3561	-0.9
CCCC1=NN(C(=O)CCc2ccccc2O)C(O)(C(F)(F)F)C1 (stereo not drawn)
 : 7	7	-3	-23	-5	2490	6.0
CCOC(=O)c1ccccc1NC1c2ccccc2C(=O)N1c1ccc(C)cn1 (stereo not drawn)
 : 8	13	-3	-33	-3	6194	-10
O=[N+]([O-])c1nn(-c2ccc3c(c2)OCCO3)n(O)c1=Nc1ccccc1
 : 5	8	12	81*	5	2614	-5.6
O=C(NN=C1CCCC1)c1cccs1
 : 9	1	3	-8	0	2510	2.3
O=C(NC1CCCCC1)N1CCN(c2ccccc2)CC1
 : 12	8	3	67*	0	8719	4.5
CC(C)(C)n1nc2c(c1NC(=O)c1ccccc1S(=O)(=O)C(F)F)CS(=O)(=O)C2
 : 0	-3	6	0	5	4533	2.2
Cn1c(SCc2ccc(F)cc2)nnc1-c1ccncc1
 : 0	-2	-1	-21	-1	4261	-0.2
Cc1ccc(/C=N/NC(=O)c2nnn(-c3nonc3N)c2CN(C)C)o1
 : nt	nt	nt	-22	-8	5132	nt
CC1=C(C(=O)O)N2C(=O)C(NC(=O)Cc3ccccc3)C2SC1 (stereo not drawn)
 : -7	8	37	-13	-2	5247	27
CCO[C@H]1OC(C(=O)N2CCCCCCC2)=C[C@@H](C2CCCCC2)[C@@H]1CCCO
 : nt	nt	nt	-17	1	4535	nt
CCN(CC)CC(O)COCCC12CC3CC(CC(C3)C1)C2 (stereo not drawn)
 : 11	3	17	-4	3	5388	3.1
Cn1c(SCC(=O)NCCN2C(=O)CSC2=O)nnc1-c1ccccc1
 : 13	4	12	-30	13	2145	4.2
COc1ccccc1NC(=O)C[n+]1ccccc1C
 : 13	3	10	-23	1	4072	3.6
COc1ccc(Cl)cc1NC(=O)CC(C)=NNC(=O)c1ccccc1Cl
 : 5	8	6	nt	nt	nt	6.6
Cc1nn(Cc2ccc(F)cc2)c(C)c1NC(=O)c1nn(C)cc1Cl
 : 4	13	-1	-23	1	3938	-0.7
COc1ccc(OCc2cccc(C(=O)Nc3ccc(CN4CCCCC4)cc3)c2)cc1
 : 8	2	6	-32	5	2359	4.4
CCCCCCSc1ccc([C@H]2N[C@@](CC(C)C)(C(=O)OC)[C@H]3C(=O)N(CC)C(=O)[C@@H]23)cc1
 : nt	nt	nt	-21	7	3038	nt
CCOC(=O)Cc1csc(NC(=O)CSc2ncnc3c2cnn3-c2ccccc2Cl)n1
 : 3	7	6	-4	2	3190	-19
COC(=O)CN1C(=O)C(O)(CC(=O)c2ccccc2)c2ccccc21 (stereo not drawn)
 : 1	4	-4	-6	0	3011	5.4
Nc1ccc(OCc2ccccc2)cc1
 : nt	nt	-4	-7	4	5716	8.9
O=C(c1cc(-c2ccc(Cl)c(Cl)c2)on1)N1CCCCCC1
 : -7	6	10	-53	-9	7128	-0.9
CC(C)CN(C(=O)COC(=O)CCCc1c[nH]c2ccccc12)c1c(N)n(Cc2ccccc2)c(=O)[nH]c1=O
 : -3	-5	10	-8	-3	4446	2.0
C=CCN1CCOc2ccc(C)cc2S1(=O)=O
 : 8	11	1	-13	nt	4066	4.0
CCOC(=O)c1c(C)[nH]c(C(=O)COC(=O)CCC(=O)c2ccc3c(c2)OCCO3)c1C
 : 0	6	-13	-29	-5	10241	2.4
CS(=O)(=O)CCC(C(=O)OCc1ccc(Cl)cc1)N1C(=O)c2ccccc2C1=O (stereo not drawn)
 : -3	8	-2	-17	7	2007	19
CCOc1ccc(C(=O)N2CCN(c3ncccn3)CC2)cc1
 : 7	-6	11	-43	3	6734	1.5
CCN(CC)CCOc1c(Br)ccc2c1sc1nc3n(c(=O)c12)CCC3
 : nt	nt	5	-7	-12	5166	0.1
CCOC(=O)C1CCCCN1C(=O)c1ccc2nc(Cc3ccc(OC)cc3)oc2c1 (stereo not drawn)
 : 1	1	5	-8	-4	5824	-0.3
CC(=O)OC1c2ccccc2C(=O)N1c1ccccc1C (stereo not drawn)
 : 7	1	4	-19	-1	5868	5.8
Cc1nc2ccc(S(=O)(=O)N(C)CC(=O)NCc3ccc4c(c3)OCO4)cc2s1
 : 8	9	4	1	0	2253	3.0
Cc1cc(C(=O)NN=Cc2ccc([N+](=O)[O-])cc2)c2ccccc2n1
 : -8	-1	7	nt	nt	nt	4.7
COCCNC(=O)CCc1nnc(Cc2ccc(-c3ccccc3)cc2)o1
 : 2	1	6	-32	-7	4600	2.3
O=C(Nc1nc2ccc(Br)cc2s1)c1ccco1
 : 15	2	4	-66	-8	4066	0.0
O=S(=O)(c1ccc(-c2cc(C(F)(F)F)on2)s1)N1CCCC1
 : 4	3	-3	-11	0	4449	6.4
NC1=NC(=O)C(CC(=O)c2ccc(Cl)cc2)S1 (stereo not drawn)
 : 11	2	5	-22	14	9091	6.7
Cc1ccc(C)c(OC(=O)c2cccnc2)c1
 : 3	2	14	-21	-11	2871	2.8
C/C(N)=C(/C#N)C(=O)COC(=O)CCC1CCCC1
 : nt	nt	8	-10	-3	2943	2.8
CCCCn1c(-c2ccccc2)nnc1-c1ccccc1
 : -3	5	-2	-19	-8	4600	1.4
CC(C)c1cccc(C2=CC(=O)C[C@H](c3ccc(F)cc3)C2)c1
 : 3	7	56	-15	nt	3376	-23
O=C(COC(=O)CCc1c[nH]c2ccccc12)Nc1ccccc1
 : 24	4	5	-13	nt	5169	0.3
O=C(NC1CC1)C1=C[C@@H](c2csc3ccccc23)C[C@@H](OCCCCO)O1
 : nt	nt	nt	-18	16	3650	nt
COc1ccc2c(c1)c(=O)oc1c(C)c(OC(C)C(=O)NCC3CCC(C(=O)O)CC3)ccc12 (stereo not drawn)
 : nt	nt	-10	1	4	5736	3.3
CC(=O)Nc1oc(-c2cccc3ccccc23)nc1C#N
 : 12	8	-19	-9	nt	3929	5.6
CCCCC(=O)Nc1ccc(C(=O)NCC(=O)OC)cc1
 : 9	7	2	-5	-12	22542*	3.6
CSCCOC(=O)COc1ccc(C=NNC(=O)c2c(Cl)cnn2C)cc1
 : 14	1	12	nt	nt	nt	2.0
CNC(=O)N(O)C1N(N=Cc2ccc(SC)cc2)C(=S)SC1(C)C (stereo not drawn)
 : -1	4	10	nt	nt	nt	2.1
Cc1cccc(CS(=O)(=O)Cc2ccc(C(=O)NCc3ccccc3)o2)c1
 : -1	8	14	-13	-8	5948	6.5
COc1ccc(C=NNC(=O)c2ccc(COc3ccccc3Cl)o2)cc1
 : -4	-6	-3	nt	nt	nt	0.3
CC(=O)Nc1ccc(NC(=O)CN(c2ccccc2Cl)S(C)(=O)=O)cc1
 : 4	-5	4	-5	3	9579	8.1

Following part.
Screens in order – Mtb hypoxia rep	Mtb hypoxia rep growth	Sa ugtP lethal	PrP UTR inh	BJeLR viability	Bead autofluor	Sa RN4220 lethal
COc1ccc(C2=NS(=O)(=O)N(C)C(C(=O)NCc3ccccn3)=C2)cc1
 : 7	5	4	-15	9	5307	2.7
COc1ccc2nc(NC(=S)N(C)C)sc2c1
 : 8	5	2	-136	30	23623*	2.8
Cc1cc(S(=O)(=O)N2CCC(NC(=O)C34CC5CC(CC(C5)C3)C4)CC2)ccc1-n1cnnn1
 : 0	-3	-4	-19	-6	12868	-3.2
CC1=C(C(=O)OCC2CCCO2)C(c2ccc(O)cc2)NC(=O)N1 (stereo not drawn)
 : 4	4	-2	-22	-9	9849	-1.0
